# Assay outcomes: PubChem, National Center for Advancing Translational Sciences (NCATS)
# VACV mCherry inh: vaccinia inhibition (mCherry reporter) | AID 720579 | Potency, µM (titrated, usually from 36.5 µM), inactives show at the highest dose activity change, negative = inhibition, actives largely listed as inhibitors | actives 0.63% (n = 310,000) | Vaccinia virus mCherry reporter infection, fluorescence; about a quarter of the inactives have no number; active = well fitted inhibition curve with a large enough effect; inconclusive = small, poorly fitted or top-dose-only effect; inactive = no such curve, though single readings can be large or run the other way; tested in A549 cells; further: nearly all actives have a fitted effect of over 35% in size; inactives centre near -10
# Vaccinia Venus: vaccinia inhibition (Venus reporter) | AID 720580 | Potency, µM (top dose mostly 36.5 µM), for the others: at the highest dose activity change, negative = inhibition, actives largely listed as inhibitors | Vaccinia virus Venus reporter expression, fluorescence | actives 0.46% (n = 330,000); active means well fitted inhibition curve with a large enough effect; inconclusive means small, poorly fitted or top-dose-only effect; inactive means no such curve, though single readings can be large or run the other way; tested in A549 cells; further: nearly all actives have a fitted effect of over 30% in size; inactives centre near -10
# An asterisk follows results filed as active; i = inactive; ? = inconclusive; · = not tested or not shown; & = joins results of further samples; [ ] = dose if it differs, or a comment. On the % scale 0 is the no-effect control and ±100 the full control effect; potency means the concentration at half of the fitted maximal effect. Not a hit list. Share with any hit: about 0.82%.
nr	SMILES	VACV mCherry inh	Vaccinia Venus
1	Cc1ccc(/C=C/C(=O)c2ccc(N3CCOCC3)cc2)s1	-12.8%	-5.9%
2	Cc1ccc2[nH]c(=O)c(CN(Cc3ccco3)S(=O)(=O)c3c(C)ccc4nsnc34)cc2c1	-2.1%	-22.2%
3	Cc1cccc(NC(=O)CSc2nc(-c3cccc(C)c3)nc3c2Cc2c(CO)cnc(C)c2O3)c1	-2.6%	5.2%
4	CCNc1nc(NCC)nc(-n2cc(C(=O)c3cc(Cl)ccc3O)cn2)n1	?	-24.6%
5	CC(C)c1ccc2[nH]c3nc(SCC(=O)N4CCOCC4)nnc3c2c1	i	-20.9%
6	Clc1ccccc1CNCC1CCCO1 (centres undefined)	-13.6%	-2.0%
7	COC(=O)[C@@]1(C)[C@H]2C(=O)N(C)C(=O)[C@H]2[C@H]2CN=C(SCc3ccccc3)N21	-8.3%	-1.5%
8	COc1cc(OC)cc(-c2c(Sc3ccccc3)c3cc(-c4cnc(N5CCOCC5)nc4)ccc3n2C)c1	4.0%	2.3%
9	CS(=O)(=O)N1CCc2cc(S(=O)(=O)N3CCCCC3)ccc21	i	-12.9%
10	C=CCn1c(C)cc(C(=O)CSc2nnc3c(Cl)cc(Cl)cn23)c1C	·	-16.9%
11	CN(C)CCN(CC1CCCN(Cc2ccccc2F)C1)C(=O)c1ccc(F)cc1 (centres undefined)	?	-13.2%
12	C=CCn1c(SCC(=O)Nc2cc(OC)c(NC(=O)c3ccco3)cc2OC)nnc1-c1ccncc1	i	-7.7%
13	COc1cc(/C=C(/NC(=O)c2ccccc2Cl)C(=O)O)cc(OC)c1OC	-6.6%[1.46 µM]	-13.0%
14	Cc1cccc(N2C(=O)N(Cc3ccc(C(C)(C)C)cc3)c3ccccc3S2(=O)=O)c1	11.5%	9.5%
15	COc1ccc(NC(=O)CC(C)c2ccccc2)c([N+](=O)[O-])c1 (centres undefined)	-15.9%	-12.5%
16	COc1ccccc1CNc1nc(NCc2ccc(C)cc2C)c2sccc2n1	-3.6%	-26.2%
17	COc1ccc(N2CCN(CCNS(=O)(=O)c3cccc4nsnc34)CC2)cc1	-7.3%	-26.2%
18	CCOc1cc(C2CC(=O)Nc3c2c(C)nn3-c2nc(C)cc(C)n2)ccc1O (centres undefined)	-0.3%	-7.0%
19	Clc1ncc(CSc2ccccc2)s1	-1.2%	-2.7%
20	CC(CNC(=O)Cn1c(-c2cccs2)cc2cc(Cl)ccc21)c1ccccc1 (centres undefined)	-28.8%	-25.3%
21	O=C(CSc1nc2scc(-c3ccccc3)c2c(=O)[nH]1)N1CCCCC1	i	-12.1%
22	COc1ccc(OC)c(NC(=O)C(Sc2ccccc2)c2ccccc2)c1 (centres undefined)	·	-26.3%
23	S=C(Nc1ccc(Br)cc1Cl)N1CCC2(CC1)OCCO2	-10.8%	-14.4%
24	O=C(NCC(=O)N(Cc1cccs1)C(C(=O)NC1CCCC1)c1ccco1)c1cccs1 (centres undefined)	i	-23.9%

# 2 entries picked at random from the list so far, as already listed:
nr	SMILES	VACV mCherry inh	Vaccinia Venus
19	Clc1ncc(CSc2ccccc2)s1	-1.2%	-2.7%
14	Cc1cccc(N2C(=O)N(Cc3ccc(C(C)(C)C)cc3)c3ccccc3S2(=O)=O)c1	11.5%	9.5%

# More results.
nr	SMILES	VACV mCherry inh	Vaccinia Venus
25	COc1cc(/C=N/NC(=O)c2ccncc2)ccc1OCC(=O)Nc1ccccc1	i	-17.3%
26	CCc1ccccc1NC(=O)c1cc(S(=O)(=O)N(CC)c2ccccc2)ccc1F	-9.0%	-12.1%
27	O=C(CNC(=O)c1cccs1)N/N=C/c1ccc(O)cc1O	-8.4%	0.8%
28	Cc1ccccc1OCCCC(=O)Nc1ccc(S(=O)(=O)Nc2onc(C)c2C)cc1	-11.0%	-11.2%
29	CCc1ccc(OCCSc2nc(-c3cccc(C)c3)nc3cc(=O)[nH]n23)cc1	-8.9%	0.2%
30	Cc1cccc(NC(=O)c2cccc(S(=O)(=O)Nc3c(C)n(C)n(-c4ccccc4)c3=O)c2)c1	-22.9%	-14.0%
31	O=C(N/N=C/c1cccs1)c1cc(C2CC2)nc2ccccc12	?	-22.5%
32	CCS(=O)(=O)N1CCN(c2ccccc2)CC1	i	3.3%
33	O=C(COC(=O)CNC(=O)c1ccc(Cl)cc1Cl)NC1CCCCCCC1	-16.9%	-5.8%
34	CCCCC(=O)OC1=CN(Cc2ccccc2)S(=O)(=O)c2ccccc21	?	-17.4%
35	CC[C@H](C)Cc1cn([C@@H](CCCN=C(N)N)C(=O)NCCCCCCCCCCC(=O)N2CCNCC2)nn1	-6.1%	-3.2%
36	CC1CCCN(C(=O)COC(=O)Cc2ccc(Cl)cc2)C1 (centres undefined)	i	5.0%
37	COc1ccc(OC)c(S(=O)(=O)N2CCN(c3ccccn3)CC2)c1	-16.3%	-17.4%
38	Cc1nc2ncccn2c1-c1csc(Nc2cccc(C(=O)O)c2)n1	-12.6%	-3.8%
39	CCOC(=O)N1CCN(C(=S)NC(=O)c2ccc(F)cc2)CC1	i	-8.0%
40	CCS(=O)(=O)N1Cc2ccccc2CC1C(=O)OCC(=O)Nc1ccc(C)cc1 (centres undefined)	·	-22.1%
41	CCC(C(=O)NCCCN1CCOCC1)n1c2ccccc2c2nc(=O)cc(C)n21 (centres undefined)	-5.9%	-1.7%
42	CCOc1ccc(NC2=NC(C)(C)N=C(N)N2)cc1	7.6%	10.2%
43	CC1=CCC(C(=O)N/N=C/c2cccs2)C(c2ccc(F)cc2)C1 (centres undefined)	?	-28.6%
44	COc1ccc(C(CNC(=O)c2cccnc2SC)N2CCOCC2)cc1 (centres undefined)	-19.4%	-11.2%
45	CCC(=O)c1cc2c(cc1NC(=O)C(C)C)OCCO2	·	9.7%
46	CC(=O)c1c(C)oc2ccc(N(C(=O)c3ccncc3)S(=O)(=O)c3ccc(F)cc3C)cc12	-13.9%	-7.6%
47	O=C(Nc1ccc(Br)cc1Cl)c1ccc2c(=O)n3c(nc2c1)CCC3	i	-21.4%
48	O=c1cc(-c2ccc(Br)cc2)[nH][nH]1	-0.8%	-0.3%
49	Cc1ccc(C)c(NC(=O)C2CCN(c3cc(C)nc4c(-c5ccc(Cl)cc5)c(C)nn34)CC2)c1	-3.4%	2.9%
50	CCCCNS(=O)(=O)CCNCc1ccco1	-16.8%	-2.9%
51	CCn1c(C(O)c2ccc3c(c2)OCO3)nc2ccccc21 (centres undefined)	-19.4%	-10.4%
52	CC(=O)Nc1ccc(S(=O)(=O)NC(=O)C23CC4CC(CC(C4)C2)C3)cc1	-6.9%	-5.0%
53	CCCCC(=O)NCc1nc2cccnc2n1Cc1ccc(OC)cc1	-4.4%	-1.3%
54	Cc1ccc(NC(=O)Cn2c(=O)n(Cc3ccco3)c(=O)c3ccc(C(=O)NC4CCCC4)cc32)c(C)c1	-29.5%	?
55	COc1ccc(CC(=O)NNC(=O)c2ccc(SCc3cc(F)ccc3F)c([N+](=O)[O-])c2)cc1	-7.2%	-20.9%
56	O=C(NCc1ccncc1)C1COc2ccccc2O1 (centres undefined)	-9.5%	4.7%
57	CC(C(=O)c1ccccc1)n1c(N2CCOCC2)nc2c1c(=O)n(C)c(=O)n2C (centres undefined)	·	-13.0%
58	CC1CCC(C(C)C)C(OC(=O)Cn2c(-c3ccc(F)cc3)[n+](C)c3ccccc32)C1 (centres undefined)	?	?
59	CC1=C(C(N)=O)C(c2ccc3c(c2)OCO3)n2nc(-c3cccc(C)c3)nc2N1 (centres undefined)	i	-26.0%
60	CC(C)[C@H](NC(=O)[C@H](CCC(=O)O)NC(=O)[C@H](Cc1ccccc1)NC(=O)[C@H](C)NC(=O)[C@@H](N)Cc1ccc(O)cc1)C(=O)N[C@H](C(=O)NCC(N)=O)C(C)C	-1.5%[3.33 µM]	-5.1%[3.33 µM]
61	Cc1csc(NC(=O)c2cc3c(s2)-c2ccccc2OC3)n1	-21.9%	?
62	Cn1ccnc1SCC(=O)Nc1cccc(S(=O)(=O)N2CCCCC2)c1	-5.0%	-15.9%
63	COC(=O)[C@@]12CCCN1[C@H](c1ccc(-c3ccc(C(C)=O)cc3)c(OC)c1)[C@H]1C(=O)N(C)C(=O)[C@H]12	i	-1.5%
64	COc1cc(OC)cc(C(C)=O)c1	-15.4%	-16.7%
65	O=C(Nc1cccc2ccccc12)NC1CCCCC1O (centres undefined)	i	-8.2%
66	Nc1cnccc1C(=O)O	-11.7%	51.5%[activator]
67	CCN(CC)Cc1c(C(=O)N/N=C/c2cccc3ccccc23)nnn1-c1nonc1N	-7.3%	-16.7%
68	CCN(CC(=O)NC1CCS(=O)(=O)C1)S(=O)(=O)c1ccc(Br)cc1 (centres undefined)	-14.9%	-2.5%
69	CCc1ccc(NC(=O)C(Cc2ccccc2)NS(=O)(=O)c2ccc3c(c2)c(=O)n(C)c(=O)n3C)cc1 (centres undefined)	-9.5%	-11.8%
70	COc1ccc(OC)c(C(=O)c2c(C)oc3cc([N+](=O)[O-])c(O)c([N+](=O)[O-])c23)c1	2.0%	-3.2%
71	O=C(Nc1nnc(C(F)(F)F)s1)c1ccc(N2C(=O)C3C4C=CC(C4)C3C2=O)cc1 (centres undefined)	i	-1.8%
72	Cc1ccccc1NC(=O)N1Cc2ccccc2-n2nncc2C1	-6.1%	-4.3%
73	COc1ccc(OC)c(S(=O)(=O)N2CCC(C(=O)Nc3cccc(C)c3)CC2)c1	-28.3%	-23.4%
74	COC(=O)c1cc(NC(=O)CN(C)Cc2ccccc2)cc(C(=O)OC)c1	i	-3.2%
75	CCOC(=O)/C=c1/s/c(=C\c2c(OC)ccc3ccccc23)c(=O)n1CC(=O)NCC1CCCO1 (centres undefined)	?	-19.6%
76	O=C(c1ccc(CS(=O)c2cccc(Cl)c2)o1)N1CCCCCC1 (centres undefined)	i	-16.1%
77	C=CCn1c(COc2ccccc2)nnc1SC(C)C(=O)N/N=C/c1cc(Cl)ccc1O (centres undefined)	?	?
78	CCOc1ccc(/C=C/C(=O)NC2CCCCC2)cc1	-18.3%	-11.3%
79	Cn1cc(CNC(=O)c2cc(-c3ccc(Br)cc3)nc3ccccc23)cn1	-9.4%	-8.8%
80	CCOC(=O)c1c(C)[nH]c(C)c1S(=O)(=O)NCC(=O)Nc1ccc(CC)cc1	-13.6%	-6.2%
81	COc1ccccc1NC(=O)NNC(=O)c1ccc2ccccc2c1O	?	-14.9%
82	CCOC(=O)[C@@H]1[C@H]2COc3ccccc3[C@@H]2N2C(=O)N(c3ccc(F)cc3)C(=O)[C@]12C	-12.0%	-6.5%
83	COc1cc(NS(=O)(=O)c2ccc(NC(=O)c3ccc(S(=O)(=O)N4CCCCC4)cc3)cc2)ncn1	-15.2%	-7.3%
84	CCN(CC)C(=S)NC(=O)c1cc(OC)c(OC)c(OC)c1	?	-12.2%

# Going on with the list.
nr	SMILES	VACV mCherry inh	Vaccinia Venus
85	Cc1cc(C(=O)Nc2nccs2)c2cc(F)ccc2n1	-9.6%	-13.2%
86	COc1cc(CNc2ncnc3c2ncn3[C@H]2CN(Cc3ccc4c(c3)OCO4)C[C@@H](CO)O2)cc(OC)c1OC	-1.1%	-3.0%
87	Cc1ccc(SCCCCN2CCOCC2)cc1	i	-12.9%
88	C=CCC(C(=O)OC)(C(=O)OC)c1ccc(C(F)(F)F)cc1[N+](=O)[O-]	8.0%	1.5%
89	COc1ccc(CNC(=O)[C@@H](NC(=O)C2CCN(C(=O)[C@@H]3CCCN3C(=O)OC(C)(C)C)CC2)C(C)C)cc1	-7.5%	-8.6%
90	CC1=NN(C(N)=S)C(=O)C1N=Nc1ccc([N+](=O)[O-])cc1 (centres undefined)	-11.3%	-7.0%
91	CN1CCN(S(=O)(=O)c2ccc3c4c(cccc24)C(=O)N3)CC1	i	-16.9%
92	CC(=O)N1CCN(C(=O)COC(=O)COc2ccc(C#N)cc2)CC1	i	-6.5%
93	CCCOc1ccc(NC(=O)C2CC(=O)N/C(=N/N=C(C)/C=C/c3ccc(N(C)C)cc3)S2)cc1 (centres undefined)	?	-12.4%
94	c1ccc2c(c1)NC(CN1CCOCC1)CO2 (centres undefined)	·	-23.3%
95	Cc1ccc(NC(=O)c2nc(S(C)(=O)=O)ncc2N(Cc2ccc(C(C)(C)C)cc2)Cc2ccco2)cc1C	-3.2%	-3.5%
96	Cc1ccc(-n2ncc(C(=O)NCCN3CCN(C)CC3)c2C2CCN(C(=O)OC(C)(C)C)CC2)c(C)c1	-7.0%	-7.6%
97	CN(Cc1ccccc1)S(=O)(=O)c1cc2c3c(c1)CCN3C(=O)CC2	-17.1%	-10.4%
98	CCC(CC)=NNc1ccc([N+](=O)[O-])cc1[N+](=O)[O-]	i	-9.3%
99	COc1ccc(C(=O)C2C(=O)C(=O)N(Cc3ccco3)C2c2cccs2)cc1 (centres undefined)	8.7%	-5.6%
100	CCCCn1c(SCC(=O)Nc2ccc(C)c(S(=O)(=O)N3CCOCC3)c2)nnc1C(CC)N(C)C (centres undefined)	-29.3%	-18.6%
101	Cc1c2cnn(-c3ccccc3)c(=O)c2c(C)n1CCCC(=O)N1CCN(C)CC1	0.6%	1.9%
102	Cc1c(Cl)cccc1NC(=O)Nc1ccc2snnc2c1	?	?
103	Cc1ccc(S(=O)(=O)N2CCCC2)cc1C(=O)NCCN1CCOCC1	-10.5%	-17.2%
104	CCC1CN(C(=O)NCc2ccc(F)cc2)c2ccccc2O1 (centres undefined)	-13.2%&0.3%	-11.5%&-11.5%
105	CN(C)c1ccc(/C=C/C(=O)c2ccc3c(c2)OCO3)cc1	-18.3%	-6.9%
